2A StopGo = lowers the luciferase signal of an FMDV 2A StopGo reporter; human cells with a luciferase reporter of 2A StopGo recoding; control for the full effect not named in the record; Potency, µM (titrated, usually from 57.9 µM), inactives show at the highest dose signal change, negative = less light; hit rate 1.2% among 410,000; active = well fitted falling curve with a large enough effect; inconclusive = small, poorly fitted or top-dose-only effect; inactive = no such curve, though single readings can be large or run the other way; tested in HEK293T cells; note: % is set by controls: 0 for no effect and ±100 for the full control effect; nearly all actives have a fitted effect of over 45% in size; luciferase light after 4 h
Lassa entry inh = blocks Lassa virus binding to or entry into cells; Lassa virus pseudotype entry inhibition, cell reporter; control for the full effect not named in the record; Potency, µM (titrated, usually from 37.9 µM), for inactives: at the top dose activity change, negative = inhibition, hits mostly inhibitors; hit rate 1.2% among 300,000; AID 540256; active means well fitted inhibition curve with a large enough effect; inconclusive means small, poorly fitted or top-dose-only effect, or effect the other way; inactive means flat fitted curve, though single readings scatter; tested in HEK293 cells; note: % is set by controls: 0 for no effect and ±100 for the full control effect; nearly all actives have a fitted effect of over 50% in size; luciferase read-out
RE007 growth inh = less growth of the S. pombe RE007 Vpr strain; hit rate 0.21% among 360,000; Potency, µM (titrated, usually from 92.2 µM), for inactives: top-dose activity change, negative = less growth; S. pombe RE007 Vpr strain, BacTiter-Glo ATP luminescence, 24 h; control for the full effect not named in the record; active = well fitted falling curve with a large enough effect; inconclusive = small, poorly fitted or top-dose-only effect; inactive = no such curve, though single readings can be large or run the other way;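 note: % is set by controls: 0 for no effect and ±100 for the full control effect; nearly all actives have a fitted effect of over 50% in size; the assay follows cell death caused by Vpr and the record does not say whether a fall means rescue or toxicity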
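Fission yeast RE007 carrying one integrated HIV-1 vpr copy, seeded at OD 0.01 in PMG+AL medium with 23 nL pinned compound. Grown 24 h at 30 degrees; viability read by BacTiter-Glo luminescence after 5 min.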
Cruzain Triton = cruzain (T. cruzi) inhibition with detergent; P25779; purified cruzain, Z-FR-AMC fluorescence, 0.01% Triton; hit rate 0.43% among 200,000; Potency, µM, inactives show max response, negative = inhibition, hits mostly inhibitors;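 note: plate controls were neutral wells for no effect and buffer without enzyme for full effect; nearly all actives have a fitted effect of over 40% in size; top concentration of the series not given in the record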
Target sequence (P25779 123-467 limits assumed): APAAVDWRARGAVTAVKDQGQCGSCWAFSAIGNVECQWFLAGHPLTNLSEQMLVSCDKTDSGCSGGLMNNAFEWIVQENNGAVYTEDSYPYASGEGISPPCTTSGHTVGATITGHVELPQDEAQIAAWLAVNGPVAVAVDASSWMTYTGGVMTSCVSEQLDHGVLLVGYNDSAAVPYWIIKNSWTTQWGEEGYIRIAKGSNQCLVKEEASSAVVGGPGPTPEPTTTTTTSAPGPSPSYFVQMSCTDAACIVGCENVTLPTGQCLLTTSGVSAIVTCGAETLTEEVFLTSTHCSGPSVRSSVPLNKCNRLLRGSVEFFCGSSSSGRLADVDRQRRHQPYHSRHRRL
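Steps: dispense cruzain (1.5 nM final) in acetate buffer pH 5.5 with DTT and 0.01% Triton X-100; pin-transfer compounds; incubate 15 min RT; add Z-FR-AMC (2 uM final); read fluorescence every 30 s, using the 60 s intensity change.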
SARS PLpro yeast = inhibitors of SARS-CoV papain-like protease in yeast; S. cerevisiae expressing SARS-CoV PLpro, growth rescue; control for the full effect not named in the record; Potency, µM (doses to about 32.9 µM), inactives show at the highest dose activity, positive = growth rescue; hit rate 0.19% among 330,000; AID 485353; active means well fitted rising curve with a large enough effect; inconclusive means small, poorly fitted or top-dose-only effect; inactive means no such curve, though single readings can be large or run the other way; note: 0% is about no effect; nearly all actives have a fitted effect of over 55% in size; growth read by luminescence after 48 h
NS1 function inh = influenza NS1 inhibition. S. cerevisiae slowed by influenza A NS1, growth recovery by OD600. Potency, µM (titrated, usually from 46.1 µM), inactives show at the top dose activity, positive = more growth. hit rate 0.4% among 270,000; active means well fitted rising curve with a large enough effect; inconclusive means small, poorly fitted or top-dose-only effect; inactive means no such curve, though single readings can be large or run the other way; note: nearly all actives have a fitted effect of over 50% in size
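Read-out: OD600 growth recovery of NS1-expressing budding yeast. Cells grown overnight at 30C in -URA glucose medium, washed, resuspended and diluted 1:100 in 2% galactose assay medium, pH 6.0. Same strain lacking NS1 served as positive control.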
MARV entry inh = blocks Marburg virus binding to or entry into cells | Potency, µM (series often up to 37.8 µM), for the others: at the highest dose activity change, negative = inhibition, usual class: inhibitors | Marburg virus pseudotyped entry inhibition, cell reporter; control for the full effect not named in the record; about a third of the inactives were read at about 46 µM | hit rate 1.8% among 300,000; active = well fitted inhibition curve with a large enough effect; inconclusive = small, poorly fitted or top-dose-only effect, or effect the other way; inactive = flat fitted curve, though single readings scatter; tested in HEK293 cells; about a fifth of its hits are not listed in these tables; note: % is set by controls: 0 for no effect and ±100 for the full control effect; luciferase read-out
Cruzain inh noDet = cruzain (T. cruzi) inhibition without detergent; P25779; purified cruzain, Z-FR-AMC fluorescence, no detergent; Potency, µM, for the others: max response, negative = inhibition, actives largely listed as inhibitors; hit rate 2.3% among 200,000; AID 1476;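 note: plate controls were enzyme without inhibitor for no effect and buffer without enzyme for full effect; nearly all actives have a fitted effect of over 40% in size; top concentration of the series not given in the record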
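Purified cruzain at 1.5 nM, pre-incubated 15 min with compound at room temperature in 100 mM sodium acetate pH 5.5, 5 mM DTT, 0.00005% Triton X-100. Reaction started with 2 uM Z-FR-AMC; AMC fluorescence increase over 60 s gives rate.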
Starred values were filed as active, the others as inactive; u = inconclusive; x = not tested or not shown; [ ] = dose if it differs, or a comment. Unless noted, calls come from the whole dose curve; as a rule, active = well fitted curve in the direction sought with a large enough effect; inconclusive = small, poorly fitted or top-dose-only effect, or another doubt; inactive = no such curve, though single readings can be large; an effect the other way counts as inactive or inconclusive. Potency is the fitted concentration of half-maximal effect.

Below each compound – NS1 function inh, RE007 growth inh, MARV entry inh, Cruzain inh noDet, SARS PLpro yeast, Lassa entry inh, 2A StopGo, Cruzain Triton
> COc1cccc(NC(=O)CSc2ccc3nnc(-c4ccncc4)n3n2)c1
 : -3%, -17%, x, 2%, -3%, x, 6%, -0.9%
> O=C(N[C@H]1CP(=O)(Oc2ccccc2)O[C@H](COCc2ccccc2)[C@H]1O)C(Cl)(Cl)Cl (stereo partly drawn)
 : 2%, -11%, x, x, 0%, x, 5%, x
> CCOC(=O)c1cnc2c(cnn2C)c1Cl
 : x, 3%, -19%[46.1 µM], x, -3%, 14%, -1%, x
> Clc1ccccc1CN1CCN(/N=C/C=C\c2ccco2)CC1
 : 4%, -11%, u, x, 1%, 9%, 12%, x
> N=C1/C(=C\c2ccc(SCc3ccccc3)o2)C(=O)N=C2SC(CC(=O)N3CCOCC3)=NN12
 : -1%, 9%, x, x, 1%, x, 3%, x
> Cc1cc(-c2ccccc2)c2ccc(NC(=O)C(C)(C)C)nc2n1
 : 12%, -7%, x, x, -6%, x, -20%, x
> Nc1sc2c(c1C(=O)NC1CCS(=O)(=O)C1)CCC2 (stereo not drawn)
 : 4%, 12%, -20%, 4%, -3%, 14%, -4%, -4.3%
> COC(=O)c1c(-c2ccc(Br)cc2)csc1NC(=O)Cc1ccc(OC)c(OC)c1
 : 10%, -1%, -20%, u, -9%, 2%, u, -2.4%
> CCCc1ccc2oc(C(=O)N3CCN(CC(=O)NC(C)C)CC3)c(C)c2c1
 : -18%, 0%, x, x, 7%, x, -2%, x
> COc1ccc(OCCOC(=O)CN2C(=O)NC3(CCCC3)C2=O)cc1
 : x, -9%, 0%, x, 7%, -15%, -10%, x
> CC(C)=CCCC(C)CN1CCC(O)CC1 (stereo not drawn)
 : 1%, -7%, 12%, -1%, x, 5%, -17%, 3.4%
> CCCCC(CC)C(=O)Nc1ccc(S(=O)(=O)Nc2nccs2)cc1 (stereo not drawn)
 : -65%, 1%, x, x, 1%, x, 55%[activator], x
> CCC(=O)N1CCc2cc(S(=O)(=O)CCC(=O)NC3CCCCC3)ccc21
 : 5%, 23%, x, x, 1%, x, -6%, x
> Cc1ccc(C2CC(C(F)F)n3ncc(C(=O)Nc4cnn(Cc5ccccc5C)c4)c3N2)cc1 (stereo not drawn)
 : u, 1%, u, 25%, -7%, x, -11%, -2.3%
> CNC(=O)N(C1=NCC(C)S1)c1ccc(F)cc1F (stereo not drawn)
 : -39%, 6%, -7%, 4%, -5%, u, -3%, -5.5%
> COc1ccc(NC(=O)CC(Cc2ccccc2)C(=O)O)cc1 (stereo not drawn)
 : -1%, -1%, 0%, -3%, 2%, -1%, 12%, -2.7%
> CCOc1cc(C2C3=C(CCCC3=O)N(CCC(=O)O)C3=C2C(=O)CCC3)ccc1OS(=O)(=O)c1ccc(C)cc1
 : 24%, 22%, 8%, u, 8%, 7%, -4%, -2.3%
> CCn1c2ccccc2c2cc(NC(=O)CC(C)=O)ccc21
 : 5%, -9%, -20%, 0%, -13%, -6%, -6%, -10%
> COC(=O)c1cc(NC(=O)CSC2=NCCS2)cc(C(=O)OC)c1
 : 4%, -2%, u, x, -1%, u, -15%, x
> CCOc1cc(C(=O)Nc2ccc(S(=O)(=O)Nc3nnc(CC)s3)cc2)cc(OCC)c1OCC
 : 11%, 6%, u, x, 0%, u, -20%, x
> Cc1cccc(C(=O)Nc2ccc(C(=O)OCc3cc(=O)n4nc(CC(C)C)sc4n3)cc2)c1
 : x, x, x, -7%, x, 9%[46.1 µM], 30%[activator], 0.6%
> O=C(CN1C(=O)/C(=C/c2ccco2)SC1=S)Nc1ccc(C(=O)O)c(O)c1
 : u, 5%, x, x, u, x, -18%, x
> COc1cccc(-c2nc(CS(=O)(=O)CC(=O)N3CCN(c4cc(C)ccc4C)CC3)c(C)o2)c1
 : x, x, u, 17%, x, u, 20µM*, -2.5%
> CC(=O)Nc1ccc(Nc2cc(N(C)C)c3nonc3c2[N+](=O)[O-])cc1
 : 4%, -14%, 2%[46.1 µM], x, 2%, -1%[46.1 µM], -7%, x
> NC(=O)c1ccc[n+](Cc2cccc3ccccc23)c1
 : 7%, -2%, 2%, 3%, 14%, 8%, 10%, -2.8%
> CC(C)(C)c1cc(NC(=O)Nc2ccccc2)no1
 : -4%, 0%, x, x, 0%, x, 16%, x
> Nc1nc(N)c2cc(Sc3ccc4ccccc4c3)ccc2n1
 : -4%, 39%, x, x, -1%, x, u, x
> COc1cc(OC)c(Nc2nc3ccccc3nc2-n2nc(C)cc2C)cc1Cl
 : x, x, 0%[46.1 µM], 1%, x, 0%[46.1 µM], 0%, -1.1%
> CCCCCCn1c(SCCOC)nc2c1c(=O)[nH]c(=O)n2C
 : 3%, 17%, x, x, 0%, x, -4%, x
> O=C(Nc1cccc(-c2csc(Nc3cccc(C(F)(F)F)c3)n2)c1)c1cc([N+](=O)[O-])cc(C(F)(F)F)c1
 : 5%, -10%, x, x, -5%, x, 40µM*, x
> CC(C)c1cnc2c(c1SCC(=O)c1ccc(Cl)cc1)c(=O)n(C)c(=O)n2C
 : x, x, x, -14%, x, u, u, 3.1%
> O=C(Nc1cccn(Cc2c(Cl)cccc2Cl)c1=O)c1ccc(Cl)cc1Cl
 : 14%, -1%, -28%, u, -11%, -26%, u, -4.7%
> N[C@@H](Cc1c[nH]c2ccccc12)c1nnc(SCc2ccccc2)o1
 : 5%, 1%, u, -4%, 1%, -25%, -1%, -3.8%
> COC(=O)COc1cccc(NC(=O)c2cc(OC)cc(OC)c2)c1
 : -2%, -4%, -5%[46.1 µM], x, 0%, x, 18%, x
> CC1=C(C(=O)OCc2ccc3c(c2)OCO3)C(c2ccccc2OCc2ccccc2)NC(=O)N1 (stereo not drawn)
 : 28%, -1%, u, 16µM*, 0%, -22%, x, -0.7%
> COc1ccc(N(CC(=O)Nc2ccc(S(=O)(=O)N3CCCC3)cc2)S(C)(=O)=O)cc1OC
 : -10%, -13%, -14%, u, 10%, -9%, -6%, -5.5%
> CC(=O)Oc1ccc(-c2ccc(C(=O)OCC(=O)N(C)CC(=O)Nc3ccccc3Cl)cc2)cc1
 : -13%, -3%, u, x, 3%, -21%, 3%, x
> Cc1ccccc1-c1nc2cc(NC(=O)c3cccc(OCCC(C)C)c3)ccc2o1
 : x, x, x, -9%, x, -10%[46.1 µM], u, -2.0%
> C=CCNC(=O)C1CC(=O)N(c2ccc(OCC(=O)Nc3ccc(Cl)c(C(F)(F)F)c3)cc2)C1 (stereo not drawn)
 : 1%, 10%, 14%, 1%, -3%, -26%, -19%, 4.8%
> CC1(C)Cc2cccc(OCC(=O)N3CCN(c4ccccc4F)CC3)c2O1
 : x, 5%, u, x, -4%, -30%, -13%, x

A different layout for some results above:
SMILES: Nc1nc(N)c2cc(Sc3ccc4ccccc4c3)ccc2n1
  NS1 function inh = -4% | RE007 growth inh = 39% | MARV entry inh = x | Cruzain inh noDet = x | SARS PLpro yeast = -1% | Lassa entry inh = x | 2A StopGo = u | Cruzain Triton = x

SMILES: COc1cc(OC)c(Nc2nc3ccccc3nc2-n2nc(C)cc2C)cc1Cl
  NS1 function inh = x | RE007 growth inh = x | MARV entry inh = 0%[46.1 µM] | Cruzain inh noDet = 1% | SARS PLpro yeast = x | Lassa entry inh = 0%[46.1 µM] | 2A StopGo = 0% | Cruzain Triton = -1.1%

SMILES: CCCCCCn1c(SCCOC)nc2c1c(=O)[nH]c(=O)n2C
  NS1 function inh = 3% | RE007 growth inh = 17% | MARV entry inh = x | Cruzain inh noDet = x | SARS PLpro yeast = 0% | Lassa entry inh = x | 2A StopGo = -4% | Cruzain Triton = x

SMILES: O=C(Nc1cccc(-c2csc(Nc3cccc(C(F)(F)F)c3)n2)c1)c1cc([N+](=O)[O-])cc(C(F)(F)F)c1
  NS1 function inh = 5% | RE007 growth inh = -10% | MARV entry inh = x | Cruzain inh noDet = x | SARS PLpro yeast = -5% | Lassa entry inh = x | 2A StopGo = 40µM* | Cruzain Triton = x

Next part
Below each compound – NS1 function inh, RE007 growth inh, MARV entry inh, Cruzain inh noDet, SARS PLpro yeast, Lassa entry inh, 2A StopGo, Cruzain Triton
> O=C(CSc1nnc(-c2ccco2)n1-c1ccccc1)NCc1ccc2c(c1)OCO2
 : -10%, 21%, 3%, -18%, -1%, 18%, 7%, 0.2%
> CCOC(=O)C1CCN(C(=O)C2CCCN2S(=O)(=O)c2ccc(Cl)cc2)CC1 (stereo not drawn)
 : 3%, -17%, 19%, x, -3%, -5%, -9%, x
> CCOC(=O)c1ccccc1NC(=O)Cn1c(=O)n(-c2cccc(C)c2)c(=O)c2c1c1cc(C)ccc1n2C
 : x, x, 10%[46.1 µM], -2%, x, u, -14%, -1.6%
> CCOC(=O)C1CCCN(C(=O)CCc2ccccc2)C1 (stereo not drawn)
 : -9%, 7%, 22%, 0%, 3%, -29%, -10%, -0.1%
> CC(=O)c1ccc(NC(=O)CSc2nccn2Cc2ccco2)cc1
 : x, x, x, 2%, x, u, 39%[activator], -3.8%
> O=P(Oc1ccccc1)(Oc1ccccc1)C(Nc1ccccc1)c1ccccc1 (stereo not drawn)
 : 2%, -7%, u, 10%, -20%, u, -29%, -5.8%
